Cruzain inh Det = inhibitors of Trypanosoma cruzi cruzain with detergent. P25779. purified cruzain, Z-FR-AMC fluorescence, 0.01% Triton. Potency, µM, inactives show max response, negative = inhibition, hits mostly inhibitors. 200,000 tested, 0.43% active. AID 1478;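 further: plate controls were neutral wells for no effect and buffer without enzyme for full effect; nearly all actives have a fitted effect of over 40% in size; top concentration of the series not given in the record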
Target sequence (P25779 123-467 limits assumed): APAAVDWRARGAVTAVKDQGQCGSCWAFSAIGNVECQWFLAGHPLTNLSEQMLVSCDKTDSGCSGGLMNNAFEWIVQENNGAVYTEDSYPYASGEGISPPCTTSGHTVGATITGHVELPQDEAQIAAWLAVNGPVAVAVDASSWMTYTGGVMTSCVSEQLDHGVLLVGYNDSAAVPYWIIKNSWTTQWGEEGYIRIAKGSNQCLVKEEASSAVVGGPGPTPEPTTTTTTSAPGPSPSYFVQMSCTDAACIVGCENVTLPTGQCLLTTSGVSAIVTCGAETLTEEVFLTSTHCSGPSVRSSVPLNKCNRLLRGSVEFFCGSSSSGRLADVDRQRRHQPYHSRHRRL
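Detergent-containing arm of a paired screen for aggregation-based inhibition: 0.01% Triton X-100 present. Cruzain at 1.5 nM cleaved 2 uM Z-FR-AMC at pH 5.5 with 5 mM DTT; AMC fluorescence gain over 60 s measured activity.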
RE007 growth inh = less growth of the S. pombe RE007 Vpr strain. S. pombe RE007 Vpr strain, BacTiter-Glo ATP luminescence, 24 h; control for the full effect not named in the record. Potency, µM (series often up to 92.2 µM), without a hit: at the highest dose activity change, negative = less growth. 360,000 tested, 0.21% active; active = well fitted falling curve with a large enough effect; inconclusive = small, poorly fitted or top-dose-only effect; inactive = no such curve, though single readings can be large or run the other way;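 further: on the % scale 0 is the no-effect control and ±100 the full control effect; nearly all actives have a fitted effect of over 50% in size; the assay follows cell death caused by Vpr and the record does not say whether a fall means rescue or toxicity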
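Fission yeast strain RE007, carrying one chromosomally integrated HIV-1 vpr copy, was seeded at OD 0.01 in PMG+AL medium with 23 nL pinned compound. After 24 h at 30 °C and 99% humidity, viability was read by BacTiter-Glo luminescence.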
StopGo reporter = FMDV 2A StopGo reporter, luciferase signal; human cells with a luciferase reporter of 2A StopGo recoding; control for the full effect not named in the record; 410,000 tested, 1.2% active; Potency, µM (highest dose often 57.9 µM), for the others: at the highest dose signal change, negative = less light; AID 1159524; active = well fitted falling curve with a large enough effect; inconclusive = small, poorly fitted or top-dose-only effect; inactive = no such curve, though single readings can be large or run the other way; tested in HEK293T cells; further: on the % scale 0 is the no-effect control and ±100 the full control effect; nearly all actives have a fitted effect of over 45% in size; luciferase light after 4 h
SARS PLpro yeast = inhibitors of SARS-CoV papain-like protease in yeast; Potency, µM (top dose mostly 32.9 µM), without a hit: at the top dose activity, positive = growth rescue; 330,000 tested, 0.19% active; S. cerevisiae expressing SARS-CoV PLpro, growth rescue; control for the full effect not named in the record; active means well fitted rising curve with a large enough effect; inconclusive means small, poorly fitted or top-dose-only effect; inactive means no such curve, though single readings can be large or run the other way; further: 0% is about no effect; nearly all actives have a fitted effect of over 55% in size; growth read by luminescence after 48 h
NS1 function inh = blocks influenza NS1 protein function; S. cerevisiae slowed by influenza A NS1, growth recovery by OD600; Potency, µM (series often up to 46.1 µM), for inactives: at the highest dose activity, positive = more growth; 270,000 tested, 0.4% active; AID 2326; active means well fitted rising curve with a large enough effect; inconclusive means small, poorly fitted or top-dose-only effect; inactive means no such curve, though single readings can be large or run the other way; further: nearly all actives have a fitted effect of over 50% in size
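S. cerevisiae expressing influenza A NS1, grown in glucose, washed, then diluted 1:100 into pH 6.0 -URA galactose medium with 23 nl compound. Growth recovery read as OD600; NS1-free strain serves as control.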
MARV entry inh = Marburg virus entry inhibition; Potency, µM (top dose mostly 37.8 µM), for the others: at the highest dose activity change, negative = inhibition, actives largely listed as inhibitors; Marburg virus pseudotyped entry inhibition, cell reporter; control for the full effect not named in the record; about a third of the inactives were read at about 46 µM; 300,000 tested, 1.8% active; active = well fitted inhibition curve with a large enough effect; inconclusive = small, poorly fitted or top-dose-only effect, or effect the other way; inactive = flat fitted curve, though single readings scatter; tested in HEK293 cells; about a fifth of its hits are not listed in these tables; further: on the % scale 0 is the no-effect control and ±100 the full control effect; luciferase read-out
Cruzain inh noDet = cruzain (T. cruzi) inhibition without detergent; P25779; purified cruzain, Z-FR-AMC fluorescence, no detergent; Potency, µM, for inactives: max response, negative = inhibition, actives largely listed as inhibitors; 200,000 tested, 2.3% active; AID 1476;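 further: plate controls were enzyme without inhibitor for no effect and buffer without enzyme for full effect; nearly all actives have a fitted effect of over 40% in size; top concentration of the series not given in the record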
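Purified cruzain at 1.5 nM, pre-incubated 15 min with compound at room temperature in 100 mM sodium acetate pH 5.5, 5 mM DTT, 0.00005% Triton X-100. Reaction started with 2 uM Z-FR-AMC; AMC fluorescence increase over 60 s gives rate.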
Lassa entry inh = Lassa virus entry inhibition | Lassa virus pseudotype entry inhibition, cell reporter; control for the full effect not named in the record | Potency, µM (doses to about 37.9 µM), without a hit: at the highest dose activity change, negative = inhibition, hits mostly inhibitors | 300,000 tested, 1.2% active; active means well fitted inhibition curve with a large enough effect; inconclusive means small, poorly fitted or top-dose-only effect, or effect the other way; inactive means flat fitted curve, though single readings scatter; tested in HEK293 cells; further: on the % scale 0 is the no-effect control and ±100 the full control effect; nearly all actives have a fitted effect of over 50% in size; luciferase read-out
* = called active by the depositor; ? = inconclusive; . = no result given; [ ] = another dose, or the depositor's remark. Unless noted, the call rests on the fitted dose curve; in most records, active means well fitted curve in the direction sought with a large enough effect; inconclusive means small, poorly fitted or top-dose-only effect, or another doubt; inactive means no such curve, though single readings can be large; an effect the other way counts as inactive or inconclusive. Potency means the concentration at half of the fitted maximal effect. An unsorted share of the library; any-hit rate near 4.7%.

SMILES	Cruzain inh Det	RE007 growth inh	StopGo reporter	SARS PLpro yeast	NS1 function inh	MARV entry inh	Cruzain inh noDet	Lassa entry inh
Cc1ccc(C)c(NC(=O)C2CCCN2C(=O)OC(C)(C)C)c1 (stereo not given)	1.2%	-7.4%	-14.1%	0.8%	-0.6%	0.0%	8.9%	-6.2%
CCN1CCCC1CNC(=O)c1cc(NC(C)=O)c(N(C)C)cc1OC (stereo not given)	-3.1%	-7.4%	20.3%	2.5%	-5.4%	-21.2%	5.7%	6.8%
CNc1ccccc1	3.4%	0.0%	-13.0%	-13.1%	.	.	6.6%	.
O=C(NC1CCc2ccccc21)C1CCN(S(=O)(=O)c2ccc(Cl)cc2)CC1 (stereo not given)	-3.0%	0.0%	-15.9%	-24.5%	-2.4%	27.0%	5.1%	-22.6%
Fc1ccc(N2CCN(c3ncnc4c3nnn4Cc3ccccc3Cl)CC2)cc1	.	6.3%	?	.	.	-17.5%	.	11.2%
CC(=O)/C(C#N)=C1\NC(=O)C(Cc2cc(Cl)ccc2Cl)S1 (stereo not given)	.	-3.4%	9.2%	-1.7%	-3.8%	.	.	.
CCO[C@@H]1OC(C(=O)NCc2ccccc2)=C[C@H](C2CCCCC2)[C@H]1CCCO	.	-4.4%	-15.6%	-1.5%	0.6%	.	.	.
Cc1cccc(CCNC(=O)c2cccc(NC3=NC4CS(=O)(=O)CC4S3)c2)c1 (stereo not given)	.	-2.6%	-1.3%	1.6%	12.9%	.	.	.
CCC(C)c1c(NS(=O)(=O)c2ccc(C)cc2)o[nH]c1=O (stereo not given)	.	8.1%	7.1%	.	.	-17.4%[46.1 µM]	.	1.3%[46.1 µM]
COc1ccc(Oc2coc3cc(OC(=O)c4cncc(Br)c4)ccc3c2=O)cc1	1.9%	6.7%	29.4%	6.1%	-16.7%	?	-23.9%	5.8%
COCc1ccc(C(=O)N2CCCC(C(=O)c3ccc(Cl)cc3C)C2)o1 (stereo not given)	.	-4.5%	-24.1%	-5.2%	-15.9%	.	.	.
Cc1ccc(CN=C(N)Nc2nc(C)cc(C)n2)cc1	.	5.5%	-24.1%	0.8%	-4.2%	11.2µM*	.	-22.5%
CCOC(=O)C1=C(N)OC2=C(C(=O)CCC2)C12C(=O)Nc1ccccc12 (stereo not given)	4.3%	-0.9%	.	2.7%	3.3%	13.4%	-8.9%	14.6%
CCOc1ccc2[nH]c(=O)c(C(c3nnnn3Cc3ccco3)N3CCN(C)CC3)cc2c1 (stereo not given)	.	5.8%	-3.7%	-5.5%	-61.4%	-0.8%[46.1 µM]	.	-2.3%
Cc1occc1-c1nnc(SCC(=O)NCc2ccc3c(c2)OCO3)n1CC(C)C	-0.4%	-2.4%	-25.7%	3.2%	0.5%	-28.5%[46.1 µM]	3.8%	-20.3%
COc1ccccc1OCc1ccc(C(=O)N(C)c2ccccc2)o1	.	-9.7%	3.0%	-1.1%	-17.9%	.	.	.
Cc1cc(NC(=O)CCN2C(=O)C3C4CCC(C4)C3C2=O)cc(C)c1Br (stereo not given)	2.2%	3.8%	-19.5%	21.0%	-5.1%	?	?	?
O=C(NNS(=O)(=O)c1ccc(CCCl)cc1)C(O)(c1ccccc1)c1ccccc1	-5.3%	-6.5%	31.5%[activator]	6.3%	-0.6%	?	7.9%	8.3%
NC1=NN(c2c(Cl)cc(Cl)cc2Cl)C(=O)C1	.	8.6%	-17.5%	.	.	1.0%	.	-21.3%
COCC(C)NC(=O)c1cc(-c2ccc(OC)c(OC)c2)on1 (stereo not given)	-3.8%	3.3%	0.0%	-2.1%	-1.9%	4.0%	-0.9%	?
CCc1ccc(-c2ccc(C(=O)O)cc2)nc1	0.6%	-0.5%	25.6%	-25.0%	-128.2%	20.2%	-3.9%	-2.6%
CCOC(=O)c1oc2c(c1C)-c1nn(Cc3ccccc3Cl)cc1CC2	-8.2%	.	0.0%	.	.	14.8%[46.1 µM]	8.4%	?
COc1cc(/C=N/Nc2nn3cnnc3c3ccccc23)cc(OC)c1OC	-3.9%	21.3%	9.8%	?	9.9%	?	11.2%	?
CC(=O)N(Cc1ccc2c(c1)OCO2)C1CC(=O)N(CCc2ccccc2)C1=O (stereo not given)	-0.4%	-6.5%	-6.5%	-5.7%	2.2%	-0.3%	16.1%	7.7%
Cc1nc2cc(Cl)c(Cl)cc2n1CCCO	.	-16.3%	-14.6%	0.2%	1.1%	-16.0%	.	3.4%
Cc1ccc(-c2ccc(/C=N/N=C3/NC(=O)C(CC(=O)O)S3)o2)c([N+](=O)[O-])c1 (stereo not given)	-16.8%	7.8%	15.4%	4.3%	18.5%	0.6%	-14.0%	4.8%
O=C(c1ccccc1)C1(c2ccccc2)OC1c1ccccc1 (stereo not given)	.	1.6%	-22.5%	.	.	-10.2%[46.1 µM]	.	-0.9%[46.1 µM]
Cc1ccc2nc(SCC(=O)N3CCCCC3)nc(=O)n2c1	.	-6.2%	4.0%	-4.5%	.	25.4%[46.1 µM]	.	12.7%
COc1cc(O)c(C(CC(=O)N2CCOCC2)c2ccc(N(C)C)cc2)c(OC)c1 (stereo not given)	.	?	-11.8%	0.2%	-16.7%	.	.	.
CCC(C)(C)C1CCC2(CC1)NC(=O)N(CC(=O)N1CCN(S(=O)(=O)c3cc(C)ccc3C)CC1)C2=O (stereo not given)	.	7.7%	?	?	16.1%	-15.7%	.	9.1%
C=CCn1c(O)c2ccc(C(=O)N=NC(=O)c3ccc(F)cc3)cc2c1O	.	1.2%	-10.8%	-23.0%	.	9.6%[46.1 µM]	.	4.4%
COc1ccc(C(=O)NCCCN(C)CCCNC(=O)c2ccc(OC)cc2)cc1	.	3.4%	3.1%	-0.1%	10.8%	.	.	.
CC1CCCC(C)N1C(=O)COC(=O)c1ccc([N+](=O)[O-])o1 (stereo not given)	.	-11.3%	12.6%	-7.1%	.	-0.3%[46.1 µM]	.	11.8%[46.1 µM]
N#CCCn1cc(CNC2CCC(O)CC2)c2ccccc21 (stereo not given)	.	0.3%	-3.3%	0.9%	23.9%	4.2%[46.1 µM]	.	-5.4%
O=C(NNc1nc(Nc2ccccc2)nc(N2CCOCC2)n1)Nc1ccc(Cl)cc1	.	15.7%	-17.9%	-4.7%	.	?	.	?
Cc1cccc(NC(=O)c2ccc3nsnc3c2)c1C	.	-6.2%	22.8%	-0.3%	-1.6%	-4.0%[46.1 µM]	.	-7.7%
CC1CCCCC1NC(=O)CN1CCN(S(=O)(=O)c2ccc(Br)s2)CC1 (stereo not given)	.	-22.3%	-21.4%	1.2%	.	7.6%	.	-21.1%
COc1cc2c(cc1OC)C1C(C(=O)Nc3ccccc3N3CCN(C)CC3)c3ccccc3C(=O)N1CC2 (stereo not given)	.	1.4%	-10.0%	1.8%	-7.0%	.	.	.
O=C(Cc1ccc(Cl)cc1)NCc1ccccc1Cl	.	3.8%	22.9%	1.2%	.	-4.7%[46.1 µM]	.	-11.0%
CCOc1ccccc1-n1c(N)c(C(N)=O)sc1=S	-2.6%	12.6%	2.2%	0.5%	19.7%	2.8%	1.9%	2.6%
CN1CCN(c2ccc(Nc3ccnc4cc(Cl)ccc34)cc2)CC1	.	-0.7%	-14.6%	4.3%	4.1%	?	.	2.51µM*
Cc1ccc(-c2sc(C(=O)Nc3ccc(Br)cc3)cc2CC(=O)O)cc1	?	.	-9.8%	.	.	8.8%[46.1 µM]	0.9%	27.2%[46.1 µM]
O=[N+]([O-])c1cccc(-c2n[nH]c(=S)n2-c2ccccc2)c1	.	-4.5%	-3.6%	2.0%	13.1%	?	.	9.5%
CSC1=NC(NCCCO)c2c(sc3c2CC(C)(C)OC3)N1 (stereo not given)	-4.2%	4.2%	-6.8%	-3.6%	1.8%	14.3%	-0.2%	-7.8%
Cc1nnc(NC(=O)c2ccncc2)s1	1.0%	19.4%	8.8%	5.9%	-4.4%	18.9%	-1.9%	2.5%
CC=C(C)C1(CCC)C(=O)NC(=S)NC1=O	.	13.6%	-17.7%	.	.	18.3%	.	9.0%[46.1 µM]
NC(=O)C1(N2CCCCC2)CCN(Cc2nc(-c3cccs3)no2)CC1	.	0.8%	35.5µM*	0.3%	-0.6%	.	.	.
COC(=O)C1=C(O)/C(=C\c2sccc2C)N=C1C	-8.5%	-23.0%	15.1%	-3.4%	2.0%	0.7%	-6.0%	-2.9%
CCCn1c(=O)c(C(=O)NCc2ccccn2)c(O)c2ccccc21	-4.0%	?	-5.1%	-25.3%	-84.4%	0.0%	?	-27.0%
O=C(CN1CCN(c2ccc(O)cc2)CC1)NC(=O)NCc1ccco1	-2.6%	-0.3%	-1.5%	-12.2%	14.7%	-0.6%	7.7%	-11.3%
CCOCCCNC(=O)CN1CCN(Cc2ccccc2C)C1=O	-0.3%	-2.8%	19.8%	3.7%	7.2%	.	1.6%	.
O=C1c2c(Br)c(Br)c(Br)c(Br)c2C(=O)N1c1ccccn1	.	23.6%	?	-2.7%	-15.5%	.	.	.
CCN(CC)C(=O)N1CCN(S(=O)(=O)c2ccc(C)cc2)CC1	-1.3%	6.0%	-14.1%	-1.6%	-1.7%	-11.2%	-2.2%	?
CC(=O)N1CCN(c2ccc(NC(=S)NC(=O)/C=C/c3ccccc3)cc2)CC1	-11.9%	.	.	0.2%	-3.2%	.	1.2%	.
COc1ccc(C(=O)O/N=C(\N)c2ccccn2)cc1	.	?	2µM*	-12.5%	-30.2%	?	.	?
CCCCn1c(=O)cc(O)c2ccccc21	-4.3%	21.4%	-14.5%	-3.7%	10µM*	?	-15.3%	4.3%
CC(C)(C)c1ccccc1OCC(=O)Nc1ncn[nH]1	3.1%	3.8%	-22.6%	-4.1%	-3.5%	-27.2%	-10.1%	1.1%
